UUG fidelity: modulators of start codon recognition fidelity in yeast. activity score, % at 18.7 µM. S. cerevisiae UUG-firefly luciferase reporter, luminescence/redox ratio. AID 602363. 350,000 tested, 0.13% active;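 active = replicate mean at a twofold rise or more, about +100% in these data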;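 also: firefly luciferase made from a UUG start codon reports start codon fidelity; reporter light over untreated wells divided by growth signal over untreated wells; some hits fall short of that in this replicate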
* hit, by the source's call.

CCN1[C@@H]2c3ccc(C4=CCCCC4)c(=O)n3C[C@@H]2[C@@H](CO)[C@@H]1C(=O)NCc1cccc(OC)c1
  UUG fidelity = 5

COc1cccc(C(=O)N2C[C@H]3[C@@H](c4ccccc42)[C@@H](CO)N3C(=O)c2cccc(F)c2)c1
  UUG fidelity = 11

O=C(C[C@@H]1CC[C@H]2[C@@H](COC[C@@H](O)CN2C(=O)Nc2cccc(Cl)c2)O1)NCC1CCCCC1
  UUG fidelity = 1

COc1cccc(-c2ccc([C@@H]3[C@H](CO)N4CCCCN(CC5CCOCC5)C[C@@H]34)cc2)c1
  UUG fidelity = -9

CC(C)c1cccc(NC(=O)C[C@H]2CC[C@H]3[C@@H](COc4ccc(NC(=O)NCc5ccccc5)cc4C(=O)N3C)O2)c1
  UUG fidelity = -2

CCC(=O)Nc1ccc2c(c1)C(=O)N(C)C[C@H](OC)[C@H](C)CN(C(=O)COC)[C@H](C)CO2
  UUG fidelity = -3

COc1ccc(NC(=O)Nc2ccc3c(c2)C(=O)N([C@H](C)CO)C[C@H](C)[C@@H](CN(C)Cc2ccc(Cl)c(Cl)c2)O3)cc1
  UUG fidelity = 0

CN(C)CCCNC(=O)C[C@@H]1CC[C@@H]2[C@H](COc3ccc(NC(=O)c4ccccc4F)cc3C(=O)N2C)O1
  UUG fidelity = 3

CO[C@H]1CN(C)C(=O)c2cc(NC(=O)c3cccc(F)c3)ccc2OC[C@H](C)NC[C@H]1C
  UUG fidelity = -6

COc1ccc(CN(C)C[C@@H]2Oc3c(NC(=O)Nc4ccc(F)cc4)cccc3C(=O)N([C@@H](C)CO)C[C@H]2C)cc1
  UUG fidelity = -11

O=C(NC1CCCC1)[C@@H]1[C@@H](CO)[C@@H]2Cn3c(ccc(C4=CCCCC4)c3=O)[C@H]1N2CC1CC1
  UUG fidelity = 14

Cc1ccccc1S(=O)(=O)N1CC[C@@H]2[C@H](CO)N(C)c3ccc(Br)cc3[C@@H]21
  UUG fidelity = -5

O=C(C1CC1)N1CC[C@@H]2[C@H](CO)Nc3ccc(-c4ccc(F)cc4)cc3[C@@H]21
  UUG fidelity = -22

Cc1ccccc1-c1ccc([C@H]2[C@@H](CO)N3CCCCN(CC4CC4)C[C@H]23)cc1
  UUG fidelity = -1

C[C@@H]1CN([C@@H](C)CO)C(=O)c2cccc(NC(=O)c3ccc(-c4nccs4)cc3)c2O[C@H]1CN(C)Cc1ccc2c(c1)OCO2
  UUG fidelity = -15

O=C(CN1CCOCC1)N1[C@@H](CO)[C@@H]2c3ccccc3NC[C@@H]21
  UUG fidelity = -2

CCC(=O)Nc1ccc2c(c1)C(=O)N(C)C[C@H](OC)[C@H](C)CN(C(=O)Cc1cccnc1)[C@H](C)CO2
  UUG fidelity = -17

COc1cccc(-c2ccc([C@H]3[C@H](CO)N4CCCCN(S(=O)(=O)c5cccs5)C[C@@H]34)cc2)c1
  UUG fidelity = -11

CCC(=O)N1C[C@@H](C)[C@@H](OC)CN(C)C(=O)c2cc(NC(=O)c3ccccc3)ccc2OC[C@H]1C
  UUG fidelity = 18

CC(=O)N1[C@H](CO)[C@H](c2ccc(C3=CCCC3)cc2)[C@@H]1CNC(=O)CN(C)C
  UUG fidelity = 3

CN(C)C(=O)c1ccc(-c2ccc([C@H]3[C@H](CO)N4CCCCN(S(C)(=O)=O)C[C@@H]34)cc2)cc1
  UUG fidelity = 26

Cc1ccc(S(=O)(=O)Nc2ccc3c(c2)C(=O)N([C@H](C)CO)C[C@H](C)[C@H](CN(C)S(=O)(=O)c2cccs2)O3)cc1
  UUG fidelity = -5

O=C(Cc1ccccc1)N1C[C@@H]2[C@H](c3ccccc31)[C@@H](CO)N2C(=O)c1ccc(F)cc1
  UUG fidelity = 41

CC(C)N(C[C@H]1[C@@H](c2ccccc2)[C@H](CO)N1S(C)(=O)=O)C(=O)CN(C)C
  UUG fidelity = 5

CC(=O)N1[C@@H](CO)[C@H](c2ccccc2)[C@@H]1CN(C(=O)c1ccc(F)cc1)C(C)C
  UUG fidelity = -16

CO[C@H]1CN(C)C(=O)c2cc(NC(=O)c3cccc(F)c3)ccc2OC[C@@H](C)NC[C@@H]1C
  UUG fidelity = -6

COc1ccc(S(=O)(=O)N(C)C[C@@H]2Oc3c(NC(=O)C4CCCCC4)cccc3C(=O)N([C@H](C)CO)C[C@@H]2C)cc1
  UUG fidelity = 10

COCC(=O)N1C[C@@H]2[C@H](c3ccccc31)[C@@H](CO)N2Cc1ccccc1F
  UUG fidelity = 9

O=S(=O)(c1ccc(F)cc1)N1CCCCN2[C@H](CO)[C@H](c3ccc(-c4cncnc4)cc3)[C@H]2C1
  UUG fidelity = -1

CCS(=O)(=O)Nc1ccc2c(c1)C(=O)N(C)[C@H]1CC[C@H](CC(=O)Nc3ccc(Cl)cc3)O[C@@H]1CO2
  UUG fidelity = 14

Cc1noc(C)c1NC(=O)N(C)C[C@H]1Oc2ccc(NS(=O)(=O)c3cn(C)cn3)cc2C(=O)N([C@@H](C)CO)C[C@@H]1C
  UUG fidelity = -10

O=C(C[C@@H]1CC[C@@H]2[C@H](COC[C@H](O)CN2Cc2cccc(-c3ccncc3)c2)O1)N1CCN(c2ccccc2)CC1
  UUG fidelity = -5

CCS(=O)(=O)Nc1ccc2c(c1)C(=O)N(C)[C@@H]1CC[C@H](CC(=O)NCCCN3CCOCC3)O[C@H]1CO2
  UUG fidelity = -13

CCCC(=O)Nc1ccc2c(c1)C(=O)N(C)C[C@H](OC)[C@H](C)CN(Cc1ccccc1F)[C@@H](C)CO2
  UUG fidelity = -8

O=C(c1ccccc1F)N1C[C@@H]2[C@H](c3ccccc31)[C@H](CO)N2C(=O)c1ccc(F)cc1
  UUG fidelity = 1

CCCNC(=O)C[C@@H]1CC[C@@H]2[C@H](COc3ccc(NC(=O)c4cccc(Cl)c4)cc3C(=O)N2C)O1
  UUG fidelity = 7

Cc1noc(C)c1NC(=O)N(C)C[C@H]1Oc2ccc(NS(=O)(=O)c3cn(C)cn3)cc2C(=O)N([C@@H](C)CO)C[C@H]1C
  UUG fidelity = -7

CCCN1[C@@H]2c3ccc(C4=CCCC4)c(=O)n3C[C@@H]2[C@@H](CO)[C@@H]1C(=O)NC1Cc2ccccc2C1
  UUG fidelity = 1

O=C(C[C@@H]1CC[C@@H]2[C@H](COC[C@@H](O)CN2C(=O)Nc2cccc(Cl)c2)O1)NCC1CCCCC1
  UUG fidelity = -2

CO[C@H]1CN(C)C(=O)c2cc(NC(=O)Nc3cc(F)ccc3F)ccc2OC[C@H](C)N(C(=O)c2cnccn2)C[C@H]1C
  UUG fidelity = -6

Cc1cccc(-c2ccc([C@@H]3[C@@H](CO)N4CCCCN(C(=O)c5cccnc5)C[C@H]34)cc2)c1
  UUG fidelity = -19

C/C=C/c1ccc([C@H]2[C@@H](CNC(=O)CC3CC3)N(C(C)=O)[C@H]2CO)cc1
  UUG fidelity = -6

CO[C@@H]1CN(C)C(=O)c2ccc(NC(C)=O)cc2OC[C@@H](C)N(S(=O)(=O)c2cn(C)cn2)C[C@H]1C
  UUG fidelity = 17

O=C(Cc1ccccc1)N1CC[C@@H]2[C@H](CO)Nc3ccc(-c4cccc(F)c4)cc3[C@@H]21
  UUG fidelity = -9

CN1[C@H](CO)[C@@H]2c3ccccc3N(C(=O)c3ccc(F)cc3)C[C@@H]21
  UUG fidelity = -7

COCC(=O)Nc1ccc2c(c1)C(=O)N(C)[C@@H]1CC[C@H](CC(=O)NC3Cc4ccccc4C3)O[C@@H]1CO2
  UUG fidelity = -1

C[C@@H]1CN([C@@H](C)CO)C(=O)c2cccc(NC(=O)C3CCOCC3)c2O[C@@H]1CN(C)Cc1ccc(Cl)c(Cl)c1
  UUG fidelity = -2

COCC#Cc1ccc([C@@H]2[C@H]3CN(Cc4ccccc4F)CCCCN3[C@H]2CO)cc1
  UUG fidelity = 1

O=C(C1CCC1)N1CCCCN2[C@H](C1)[C@@H](c1ccc(C#CC3CCCC3)cc1)[C@@H]2CO
  UUG fidelity = 15

CC(C)C#Cc1ccc([C@@H]2[C@@H](CO)N3CCCCN(CC4CC4)C[C@H]23)cc1
  UUG fidelity = 15

C[C@H]1CN([C@@H](C)CO)C(=O)c2cc(NS(=O)(=O)c3ccc(Cl)cc3)ccc2O[C@@H]1CN(C)C(=O)Nc1ccc(F)cc1
  UUG fidelity = -2

C[C@H](CO)N1C[C@H](C)[C@@H](CN(C)Cc2ccncc2)OCc2ccccc2-c2c(n(C)c3ccccc23)C1=O
  UUG fidelity = 0

CCC(=O)Nc1ccc2c(c1)OC[C@@H](C)N(C(=O)CC1CC1)C[C@@H](C)[C@H](OC)CN(C)C2=O
  UUG fidelity = 10

CN1C[C@@H]2[C@H](c3ccccc31)[C@H](CO)N2C(=O)c1ccccn1
  UUG fidelity = 8

O=C(NC[C@@H]1[C@@H](c2ccccc2)[C@H](CO)N1C(=O)C1CCC1)NC1CCCC1
  UUG fidelity = 24

CC(C)NC(=O)N1C[C@H]2[C@@H](c3ccccc31)[C@@H](CO)N2C(=O)c1ccc(F)cc1
  UUG fidelity = 29

C[C@@H]1CN([C@H](C)CO)C(=O)c2cccc(NC(=O)NC3CCCCC3)c2O[C@H]1CN(C)S(=O)(=O)c1ccc(F)cc1
  UUG fidelity = 4

C[C@@H]1CN([C@@H](C)CO)C(=O)Cc2cc(NS(C)(=O)=O)ccc2O[C@H]1CN(C)C
  UUG fidelity = -2

CO[C@H]1CN(C)C(=O)c2cc(NC(=O)C3CCCC3)ccc2OC[C@H](C)N(S(C)(=O)=O)C[C@H]1C
  UUG fidelity = 14

C[C@H]1CN([C@@H](C)CO)C(=O)c2cccc(NC(=O)C3CCCCC3)c2O[C@@H]1CN(C)C(=O)Nc1cccc2ccccc12
  UUG fidelity = -3

COc1ccc(CN2C[C@@H](O)COC[C@@H]3O[C@H](CC(=O)NCc4ccncn4)CC[C@H]32)cc1
  UUG fidelity = 6

COc1cccc(-c2ccc([C@@H]3[C@@H](CO)N4CCCCN(C(=O)NC(C)C)C[C@@H]34)cc2)c1
  UUG fidelity = -15

CCS(=O)(=O)N1CCCCN2[C@H](CO)[C@@H](c3ccc(C#Cc4ccccc4OC)cc3)[C@@H]2C1
  UUG fidelity = 7

CN(C)CC#Cc1ccc([C@@H]2[C@@H](CO)N3CCCCN(CC4CC4)C[C@H]23)cc1
  UUG fidelity = 10

CN1c2ccc(Br)cc2[C@H]2[C@H](CCN2C(=O)C2CCOCC2)[C@H]1CO
  UUG fidelity = 11

CN(C)C(=O)c1ccc(-c2ccc3c(c2)[C@H]2[C@H](CCN2S(=O)(=O)c2cn(C)cn2)[C@@H](CO)N3)cc1
  UUG fidelity = 3

Cc1ccc(S(=O)(=O)Nc2ccc3c(c2)CC(=O)N([C@@H](C)CO)C[C@H](C)[C@H](CN(C)C(=O)NC(C)C)O3)cc1
  UUG fidelity = -5

COc1ccc(NC(=O)N(C)C[C@H]2Oc3c(NC(=O)C4CCOCC4)cccc3C(=O)N([C@H](C)CO)C[C@H]2C)cc1
  UUG fidelity = -5

CNC[C@@H]1Oc2ccc(NS(=O)(=O)c3ccc(OC)cc3)cc2C(=O)N([C@@H](C)CO)C[C@H]1C
  UUG fidelity = -22

C[C@@H]1CN([C@H](C)CO)C(=O)c2cc(NC(=O)Nc3cccc4ccccc34)ccc2O[C@H]1CN(C)S(C)(=O)=O
  UUG fidelity = 18

CCCN1C[C@H](C)[C@@H](OC)CN(C)C(=O)c2cc(NS(=O)(=O)CC)ccc2OC[C@H]1C
  UUG fidelity = 0

Cc1cccc(S(=O)(=O)N2C[C@H](O)COC[C@H]3O[C@H](CC(=O)NCc4ccc5c(c4)OCO5)CC[C@@H]32)c1
  UUG fidelity = 5

CCCNC(=O)Nc1ccc2c(c1)OC[C@@H](C)N(Cc1ccccn1)C[C@@H](C)[C@@H](OC)CN(C)C2=O
  UUG fidelity = -9

C[C@H]1CN([C@@H](C)CO)C(=O)c2cc(N(C)C)ccc2O[C@@H]1CN(C)C(=O)Nc1ccc(C(F)(F)F)cc1
  UUG fidelity = 20

CCC(=O)NC[C@@H]1[C@H](c2ccc(-c3cccc(F)c3)cc2)[C@@H](CO)N1C(=O)CC
  UUG fidelity = 19

CO[C@@H]1CN(C)C(=O)c2ccc(NC(=O)Nc3cccc(Cl)c3)cc2OC[C@@H](C)N(C(=O)Nc2c(C)noc2C)C[C@H]1C
  UUG fidelity = 10

CNC[C@@H]1Oc2ccc(NC(=O)Nc3ccc(F)cc3)cc2C(=O)N([C@H](C)CO)C[C@H]1C
  UUG fidelity = -11

CN1c2ccc(C#Cc3cccnc3)cc2[C@H]2[C@H](CCN2C(=O)C2CCCCC2)[C@@H]1CO
  UUG fidelity = -6

Cc1cccc(S(=O)(=O)N2CCCCN3[C@@H](CO)[C@H](c4ccc(C#C[C@H](C)O)cc4)[C@@H]3C2)c1
  UUG fidelity = 2

CN1CCCCN2[C@H](CO)[C@@H](c3ccc(C#Cc4ccccc4F)cc3)[C@H]2C1
  UUG fidelity = 4

C[C@@H]1CN([C@H](C)CO)C(=O)Cc2cc(NC(=O)Nc3ccc4c(c3)OCO4)ccc2O[C@H]1CN(C)C
  UUG fidelity = 16

O=C(Nc1cccc(Cl)c1)N1C[C@@H]2[C@H](c3ccccc31)[C@H](CO)N2Cc1cccnc1
  UUG fidelity = -18

CC(C)NC(=O)N(C)C[C@@H]1Oc2ccc(NC(=O)Cc3ccccc3)cc2C(=O)N([C@H](C)CO)C[C@H]1C
  UUG fidelity = -4

OC[C@@H]1[C@@H](c2ccc(/C=C/c3ccccc3)cc2)[C@@H]2CN(Cc3ccncc3)CCCCN12
  UUG fidelity = 11

Pulled one by one from the entries so far, six records:
CNC[C@@H]1Oc2ccc(NC(=O)Nc3ccc(F)cc3)cc2C(=O)N([C@H](C)CO)C[C@H]1C
  UUG fidelity = -11

O=C(Nc1cccc(Cl)c1)N1C[C@@H]2[C@H](c3ccccc31)[C@H](CO)N2Cc1cccnc1
  UUG fidelity = -18

OC[C@@H]1[C@@H](c2ccc(/C=C/c3ccccc3)cc2)[C@@H]2CN(Cc3ccncc3)CCCCN12
  UUG fidelity = 11

CC(C)NC(=O)N(C)C[C@@H]1Oc2ccc(NC(=O)Cc3ccccc3)cc2C(=O)N([C@H](C)CO)C[C@H]1C
  UUG fidelity = -4

Cc1cccc(S(=O)(=O)N2CCCCN3[C@@H](CO)[C@H](c4ccc(C#C[C@H](C)O)cc4)[C@@H]3C2)c1
  UUG fidelity = 2

CN1CCCCN2[C@H](CO)[C@@H](c3ccc(C#Cc4ccccc4F)cc3)[C@H]2C1
  UUG fidelity = 4

Screens deposited in PubChem BioAssay by Broad Institute.

These rows are one share of the data, so the mix of outcomes need not match the whole.
